# Yeast UUG start – alters start codon recognition fidelity in yeast. activity score, % at 18.7 µM. 350,000 tested, 0.13% active. S. cerevisiae UUG-firefly luciferase reporter, luminescence/redox ratio;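 active means replicate mean at a twofold rise or more, about +100% in these data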;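 further: firefly luciferase made from a UUG start codon reports start codon fidelity; reporter light over untreated wells divided by growth signal over untreated wells; some hits fall short of that in this replicate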
# HIV Env fusion – inhibitors of HIV Env-mediated cell fusion | HeLa-JRFL Env/CEM21 cell fusion, luciferase | inhibition, % at 12.3 µM | 360,000 tested, 1.1% active;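 active means mean replicate inhibition score of at least 50 and every replicate individually at or above 50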;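 further: 0% = plate neutral controls and 100% = maraviroc near 300 nM; one replicate is shown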
# Starred values were filed as active, the others as inactive; [ ] = dose if it differs, or a comment. The list is partial; count on the stated rates, not on these rows.
SMILES,Yeast UUG start,HIV Env fusion
COc1ccc(NC(=O)Nc2cccc3c2O[C@@H](CN(C)Cc2ccc(Oc4ccccc4)cc2)[C@H](C)CN([C@@H](C)CO)C3=O)cc1,1.8,34.0[16.7 µM]
C[C@@H]1CN([C@@H](C)CO)C(=O)c2cc(NS(=O)(=O)c3ccc(F)cc3)ccc2O[C@@H](C)CCCCO[C@H]1CN(C)S(=O)(=O)c1cccs1,-8.8,-45.0[16.7 µM]
C[C@H]1CN([C@@H](C)CO)C(=O)c2cc(NC(=O)c3ccncc3)ccc2O[C@H]1CN(C)S(=O)(=O)c1ccc(F)cc1,-1.5,5.0[16.7 µM]
CNC[C@H]1Oc2c(NC(=O)Nc3ccc4c(c3)OCO4)cccc2C(=O)N([C@@H](C)CO)C[C@@H]1C,4.8,23.6[16.7 µM]
C[C@@H]1CCCCO[C@H](CN(C)Cc2ccncc2)[C@H](C)CN([C@@H](C)CO)C(=O)c2cc(NC(=O)Nc3ccc(F)cc3)ccc2O1,-2.4,1.6[16.7 µM]
C[C@@H]1CN([C@H](C)CO)C(=O)c2cc(NS(C)(=O)=O)ccc2O[C@@H]1CN(C)CC1CC1,-11.2,-8.1[16.7 µM]
Cc1noc(C)c1S(=O)(=O)N(C)C[C@H]1OCCCC[C@H](C)Oc2ccc(NC(=O)c3ccccc3)cc2C(=O)N([C@@H](C)CO)C[C@@H]1C,3.3,-8.5[16.7 µM]
CN1CCN(C(=O)C[C@@H]2CC[C@@H]3[C@H](COC[C@H](O)CN3S(=O)(=O)c3cccc(F)c3)O2)CC1,-1.6,-14.6[16.7 µM]
CCCN1C[C@H](C)[C@H](OC)CN(C)C(=O)c2cc(NC(=O)c3ccc(F)cc3)ccc2OC[C@H]1C,3.5,9.6[16.7 µM]
COc1cccc(S(=O)(=O)N2C[C@H](O)COC[C@H]3O[C@@H](CC(=O)NCCCN4CCOCC4)CC[C@@H]32)c1,-9.1,7.6[16.7 µM]
CCCC#Cc1ccc2c(c1)O[C@@H](CN(C)Cc1ccc3c(c1)OCO3)[C@H](C)CN([C@H](C)CO)S2(=O)=O,-9.5,22.0[16.7 µM]
C[C@@H](NC(=O)C[C@@H]1C=C[C@@H](NC(=O)C2CC2)[C@H](CO)O1)c1ccccc1,-9.3,2.7[16.7 µM]
COc1cccc(C#Cc2cnc3c(c2)C(=O)N([C@@H](C)CO)C[C@H](C)[C@H](CN(C)C(C)=O)O3)c1,11.1,-4.2[16.7 µM]
C[C@H](CO)N1C[C@H](C)[C@H](CN(C)C(=O)Nc2ccc3c(c2)OCO3)Oc2ncc(-c3cccc(F)c3)cc2C1=O,-7.8,-2.4[16.7 µM]
NCC[C@H]1CC[C@@H](NS(=O)(=O)c2ccc(Cl)cc2)[C@H](CO)O1,4.5,0.4[16.7 µM]
COc1ccc(NC(=O)Nc2ccc3c(c2)C(=O)N([C@@H](C)CO)C[C@@H](C)[C@@H](CN(C)C(=O)Nc2cccc4ccccc24)O3)cc1,2.0,15.6[16.7 µM]
Cc1ccc(S(=O)(=O)N(C)C[C@H]2OCCCC[C@@H](C)Oc3ccc(NC(=O)Nc4cccc5ccccc45)cc3C(=O)N([C@H](C)CO)C[C@@H]2C)cc1,-3.5,30.4[16.7 µM]
C[C@H]1CN([C@@H](C)CO)C(=O)Cc2cc(NC(=O)CCC(F)(F)F)ccc2O[C@@H]1CN(C)S(=O)(=O)c1ccc(F)cc1,-0.2,13.6[16.7 µM]
COc1ccc(NC(=O)N(C)C[C@H]2Oc3ccc(NS(=O)(=O)c4c(C)noc4C)cc3CC(=O)N([C@H](C)CO)C[C@@H]2C)cc1,10.9,-8.0[16.7 µM]
N#C[C@@H]1[C@H](c2ccccc2)[C@H](CO)N1S(=O)(=O)c1cccc(F)c1,-3.3,-6.7[16.7 µM]
COc1cccc(C#Cc2ccc([C@@H]3[C@@H](CO)N(C(=O)C4CCC4)[C@H]3C#N)cc2)c1,-2.1,-47.0[16.7 µM]
C[C@H]1CN([C@@H](C)CO)C(=O)c2cccc(NS(=O)(=O)c3ccc(F)cc3)c2O[C@@H]1CN(C)S(=O)(=O)c1ccccc1,-10.4,-38.2[16.7 µM]
C[C@H](CO)N1C[C@H](C)[C@@H](CN(C)S(=O)(=O)c2ccccc2)Oc2ccc(NC(=O)Cc3cn(C)c4ccccc34)cc2CC1=O,-14.3,-22.4[16.7 µM]
O=C(C[C@H]1CC[C@@H](NC(=O)Nc2ccc3c(c2)OCO3)[C@H](CO)O1)NCc1ccc2c(c1)OCO2,2.5,15.4[16.7 µM]
COc1ccc([Si](C)(C)[C@H]2[C@H](CC(=O)N(CCO)Cc3ccccc3)O[C@@]3(C(=O)N(C)c4ccccc43)[C@@H]2C)cc1,-3.1,-12.6[16.7 µM]
Cc1noc(C)c1S(=O)(=O)Nc1ccc2c(c1)C(=O)N([C@@H](C)CO)C[C@H](C)[C@@H](CN(C)Cc1ccccc1)O2,13.6,-16.4[16.7 µM]
C[C@H](CO)N1C[C@H](C)[C@H](CN(C)Cc2ccc(C(=O)O)cc2)OCCCC[C@H](C)Oc2ccc(NC(=O)Nc3ccc4c(c3)OCO4)cc2C1=O,5.1,-0.7[16.7 µM]
Cc1ccc(S(=O)(=O)N(C)C[C@@H]2OCCCC[C@H](C)Oc3ccc(NC(=O)C4CCCCC4)cc3C(=O)N([C@H](C)CO)C[C@@H]2C)cc1,5.8,-5.1[16.7 µM]
C[C@@H]1CN([C@H](C)CO)C(=O)c2cc(N(C)C)ccc2O[C@@H](C)CCCCO[C@H]1CN(C)C(=O)Cc1ccccc1,28.8,-22.3[16.7 µM]
O=C(C[C@@H]1C=C[C@@H](NC(=O)Cc2ccccn2)[C@@H](CO)O1)NCCCN1CCOCC1,-6.9,11.4[16.7 µM]
COc1ccc(S(=O)(=O)Nc2ccc3c(c2)CC(=O)N([C@H](C)CO)C[C@H](C)[C@@H](CN(C)Cc2ccc(-c4ccccc4)cc2)O3)cc1,5.1,-13.0[16.7 µM]
COc1ccc(NC(=O)N(C)C[C@@H]2Oc3ccc(NC(=O)Cn4cnnn4)cc3CC(=O)N([C@@H](C)CO)C[C@@H]2C)cc1,7.3,-2.7[16.7 µM]
COc1cccc(C#Cc2ccc([C@@H]3[C@@H](CO)N(C(=O)C4CC4)[C@H]3C#N)cc2)c1,-7.2,-10.4[16.7 µM]
CCC(=O)N(C)C[C@H]1Oc2ncc(-c3ccccc3OC)cc2C(=O)N([C@@H](C)CO)C[C@H]1C,3.7,-5.1[16.7 µM]
Cc1ccc(S(=O)(=O)N[C@@H]2C=C[C@H](CC(=O)NCc3ccccc3F)O[C@@H]2CO)cc1,-3.2,-2.2[16.7 µM]
CCCC#Cc1ccc2c(c1)O[C@H](CN(C)C(C)=O)[C@H](C)CN([C@@H](C)CO)S2(=O)=O,5.2,-16.1[16.7 µM]
C[C@@H]1CN([C@H](C)CO)S(=O)(=O)c2ccc(-c3cncnc3)cc2O[C@@H]1CN(C)C(=O)CC1CC1,-2.0,-0.3[16.7 µM]
O=C(Cc1ccncc1)NCC[C@H]1CC[C@@H](NC(=O)C2CCCCC2)[C@H](CO)O1,10.8,-3.8[16.7 µM]
COc1ccc(NC(=O)Nc2ccc3c(c2)C(=O)N([C@H](C)CO)C[C@H](C)[C@H](CN(C)Cc2ccc(C(F)(F)F)cc2)OCCCC[C@H](C)O3)cc1,34.7,63.6*[16.7 µM]
C[C@H]1CN([C@@H](C)CO)C(=O)c2cc(/C=C/c3ccccc3)cnc2O[C@@H]1CN(C)C(=O)c1ccc(F)cc1,22.3,23.1[16.7 µM]

# Overlap with the part before: five compounds, followed by the next part.
SMILES,Yeast UUG start,HIV Env fusion
CCCC#Cc1ccc2c(c1)O[C@H](CN(C)C(C)=O)[C@H](C)CN([C@@H](C)CO)S2(=O)=O,5.2,-16.1[16.7 µM]
C[C@@H]1CN([C@H](C)CO)S(=O)(=O)c2ccc(-c3cncnc3)cc2O[C@@H]1CN(C)C(=O)CC1CC1,-2.0,-0.3[16.7 µM]
O=C(Cc1ccncc1)NCC[C@H]1CC[C@@H](NC(=O)C2CCCCC2)[C@H](CO)O1,10.8,-3.8[16.7 µM]
COc1ccc(NC(=O)Nc2ccc3c(c2)C(=O)N([C@H](C)CO)C[C@H](C)[C@H](CN(C)Cc2ccc(C(F)(F)F)cc2)OCCCC[C@H](C)O3)cc1,34.7,63.6*[16.7 µM]
C[C@H]1CN([C@@H](C)CO)C(=O)c2cc(/C=C/c3ccccc3)cnc2O[C@@H]1CN(C)C(=O)c1ccc(F)cc1,22.3,23.1[16.7 µM]
C[C@@H]1CCCCO[C@H](CN(C)S(=O)(=O)c2ccc(F)cc2)[C@@H](C)CN([C@@H](C)CO)C(=O)c2cc(NS(=O)(=O)c3cn(C)cn3)ccc2O1,9.7,-21.7[16.7 µM]
O=C(C[C@H]1CC[C@H](NS(=O)(=O)c2cccc(F)c2)[C@@H](CO)O1)N1CCCCC1,-5.0,-21.6[16.7 µM]
C[C@@H]1CCCCO[C@H](CN(C)Cc2ccc(C(F)(F)F)cc2)[C@@H](C)CN([C@@H](C)CO)C(=O)c2cc(NC(=O)Nc3ccc(F)cc3)ccc2O1,10.7,34.4[16.7 µM]
COc1ccc(NC(=O)N(C)C[C@H]2OCCCC[C@H](C)Oc3ccc(NC(=O)Cc4ccccc4)cc3C(=O)N([C@@H](C)CO)C[C@H]2C)cc1,4.8,-23.2[16.7 µM]
C[C@@H]1CN([C@H](C)CO)C(=O)c2cc(C#Cc3ccncc3)cnc2O[C@H]1CN(C)C(=O)CN(C)C,-11.6,-20.2[16.7 µM]
COc1ccc(NC(=O)Nc2ccc3c(c2)C(=O)N([C@@H](C)CO)C[C@H](C)[C@H](CN(C)C(=O)Cc2ccccc2)OCCCC[C@H](C)O3)cc1,10.0,27.8[16.7 µM]
C[C@@H]1CN([C@@H](C)CO)C(=O)c2cc(NS(=O)(=O)c3cn(C)cn3)ccc2O[C@@H](C)CCCCO[C@@H]1CN(C)C(=O)Nc1ccc(C(F)(F)F)cc1,-12.3,-2.8[16.7 µM]
CCCN(C)C[C@H]1OCCCC[C@H](C)Oc2ccc(NS(=O)(=O)c3c(C)noc3C)cc2C(=O)N([C@H](C)CO)C[C@H]1C,7.2,-32.4[16.7 µM]
O=C(C[C@H]1C=C[C@H](NC(=O)CN2CCOCC2)[C@H](CO)O1)NCc1cccc(F)c1,-12.2,1.3[16.7 µM]
C[C@@H]1CN([C@H](C)CO)C(=O)c2cc(NC(=O)Cc3ccccc3)ccc2O[C@@H](C)CCCCO[C@@H]1CN(C)S(C)(=O)=O,-8.8,8.3[16.7 µM]
C=C[C@@H](OC)[C@H](OC(=O)Nc1ccc(SC)cc1)c1ccc(OCCO)cc1,-1.5,3.1[16.7 µM]
COc1ccc(NC(=O)N[C@H]2CC[C@@H](CCn3cc(-c4ccccc4)nn3)O[C@H]2CO)cc1,-17.6,6.7[16.7 µM]
C[C@@H]1CN([C@@H](C)CO)C(=O)Cc2cc(NC(=O)Cc3ccccc3)ccc2O[C@@H]1CN(C)Cc1ccc(Cl)c(Cl)c1,1.3,-86.3[16.7 µM]
CC(C)NC(=O)N(C)C[C@H]1Oc2c(NS(C)(=O)=O)cccc2C(=O)N([C@@H](C)CO)C[C@H]1C,-18.1,-6.7[16.7 µM]
C[C@H](O)C#Cc1ccc2c(c1)O[C@@H](CN(C)Cc1cccnc1)[C@H](C)CN([C@H](C)CO)S2(=O)=O,-8.4,-15.0[16.7 µM]
C[C@@H]1CCCCO[C@@H](CN(C)C(=O)Nc2cccc3ccccc23)[C@H](C)CN([C@H](C)CO)C(=O)c2cc(NS(C)(=O)=O)ccc2O1,11.0,-3.8[16.7 µM]
O=C(C[C@@H]1CC[C@H](NC(=O)C2CC2)[C@H](CO)O1)NCc1ccccc1Cl,-3.2,-8.0[16.7 µM]
N#C[C@@H]1[C@@H](c2ccc(C#Cc3cccnc3)cc2)[C@@H](CO)N1C(=O)C1CCC1,6.0,5.4[16.7 µM]
Cc1noc(C)c1NC(=O)Nc1ccc2c(c1)CC(=O)N([C@@H](C)CO)C[C@@H](C)[C@@H](CN(C)C(=O)Nc1ccc(F)cc1)O2,8.8,20.7[16.7 µM]
CNC[C@H]1OCCCC[C@@H](C)Oc2ccc(NC(=O)Nc3ccc4c(c3)OCO4)cc2C(=O)N([C@@H](C)CO)C[C@H]1C,17.2,-5.2[16.7 µM]
Cc1ccc(S(=O)(=O)N[C@@H]2C=C[C@@H](CC(=O)NCc3ccc(Cl)c(Cl)c3)O[C@@H]2CO)cc1,-5.5,16.0[16.7 µM]
CCCNC(=O)N[C@H]1CC[C@@H](CCn2cc(C3CCCC3)nn2)O[C@H]1CO,-4.4,16.4[16.7 µM]
C[C@H](CO)N1C[C@H](C)[C@@H](CN(C)CC2CC2)Oc2ccc(NC(=O)CCCN(C)C)cc2C1=O,9.9,-11.3[16.7 µM]
CO[C@@H]1CN(C)C(=O)c2cc(NS(=O)(=O)c3ccc(-c4ccccc4)cc3)ccc2OC[C@@H](C)NC[C@@H]1C,-11.6,21.9[16.7 µM]
COc1ccc(S(=O)(=O)Nc2ccc3c(c2)CC(=O)N([C@H](C)CO)C[C@@H](C)[C@@H](CN(C)Cc2ccc(-c4ccccc4)cc2)O3)cc1,9.5,6.2[16.7 µM]
C[C@@H]1CN([C@H](C)CO)C(=O)c2cccc(NC(=O)c3ccncc3)c2O[C@@H]1CN(C)Cc1ccc2c(c1)OCO2,-7.0,-1.2[16.7 µM]
Cc1ccc(S(=O)(=O)N(C)C[C@H]2OCCCC[C@@H](C)Oc3ccc(NC(=O)Nc4ccccc4)cc3C(=O)N([C@H](C)CO)C[C@@H]2C)cc1,-14.3,-15.6[16.7 µM]
C[C@@H]1CN([C@H](C)CO)C(=O)c2cc(-c3cccc(C(=O)N(C)C)c3)cnc2O[C@H]1CN(C)S(=O)(=O)c1ccccc1,2.2,5.2[16.7 µM]
C[C@@H]1CN([C@H](C)CO)C(=O)c2cc(C#CC3CCCC3)cnc2O[C@@H]1CN(C)C(=O)c1ccncc1,18.3,-6.2[16.7 µM]
